RE007 growth inh = less growth of the S. pombe RE007 Vpr strain | S. pombe RE007 Vpr strain, BacTiter-Glo ATP luminescence, 24 h; control for the full effect not named in the record | Potency, µM (top dose mostly 92.2 µM), without a hit: at the top dose activity change, negative = less growth | 0.21% of 360,000 active | AID 651644; active = well fitted falling curve with a large enough effect; inconclusive = small, poorly fitted or top-dose-only effect; inactive = no such curve, though single readings can be large or run the other way;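 further: on the % scale 0 is the no-effect control and ±100 the full control effect; nearly all actives have a fitted effect of over 50% in size; the assay follows cell death caused by Vpr and the record does not say whether a fall means rescue or toxicity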
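Fission yeast RE007 carrying one integrated HIV-1 vpr copy, seeded at OD 0.01 in PMG+AL medium with 23 nL pinned compound. Grown 24 h at 30 degrees; viability read by BacTiter-Glo luminescence after 5 min.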
NS1 function inh = influenza NS1 inhibition | S. cerevisiae slowed by influenza A NS1, growth recovery by OD600 | Potency, µM (highest dose often 46.1 µM), inactives show top-dose activity, positive = more growth | 0.4% of 270,000 active; active means well fitted rising curve with a large enough effect; inconclusive means small, poorly fitted or top-dose-only effect; inactive means no such curve, though single readings can be large or run the other way; further: nearly all actives have a fitted effect of over 50% in size
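Growth recovery, yeast-based: influenza A NS1 expressed in S. cerevisiae causes slow growth, and suppressors are detected by OD600. The parent strain without NS1 is used as positive control.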
Marburg entry inh = inhibitors of Marburg virus binding or cell entry; AID 540276; Potency, µM (doses to about 37.8 µM), for the others: top-dose activity change, negative = inhibition, actives largely listed as inhibitors; Marburg virus pseudotyped entry inhibition, cell reporter; control for the full effect not named in the record; about a third of the inactives were read at about 46 µM; 1.8% of 300,000 active; active = well fitted inhibition curve with a large enough effect; inconclusive = small, poorly fitted or top-dose-only effect, or effect the other way; inactive = flat fitted curve, though single readings scatter; tested in HEK293 cells; about a fifth of its hits are not listed in these tables; further: on the % scale 0 is the no-effect control and ±100 the full control effect; luciferase read-out
Cruzain inh Det = blocks cruzain activity in presence of Triton detergent; P25779; purified cruzain, Z-FR-AMC fluorescence, 0.01% Triton; Potency, µM, for the others: max response, negative = inhibition, most hits filed as inhibitors; 0.43% of 200,000 active;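 further: plate controls were neutral wells for no effect and buffer without enzyme for full effect; nearly all actives have a fitted effect of over 40% in size; top concentration of the series not given in the record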
Target sequence (P25779 123-467 limits assumed): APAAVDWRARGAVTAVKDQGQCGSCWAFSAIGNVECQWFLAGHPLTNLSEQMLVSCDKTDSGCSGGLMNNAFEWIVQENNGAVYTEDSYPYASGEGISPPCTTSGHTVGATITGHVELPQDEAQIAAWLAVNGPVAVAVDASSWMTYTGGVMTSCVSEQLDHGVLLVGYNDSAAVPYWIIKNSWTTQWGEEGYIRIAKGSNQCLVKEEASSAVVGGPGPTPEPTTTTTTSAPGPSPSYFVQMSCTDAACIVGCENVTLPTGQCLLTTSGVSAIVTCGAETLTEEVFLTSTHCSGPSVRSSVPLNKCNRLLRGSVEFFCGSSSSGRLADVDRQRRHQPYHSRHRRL
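Read-out: AMC fluorescence (360 nm excitation, 450 nm emission), four reads over 2 min, first-to-third difference used. Conditions: cruzain 1.5 nM, Z-FR-AMC 2 uM, pH 5.5 acetate, 5 mM DTT, 0.01% Triton X-100.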
StopGo reporter = FMDV 2A StopGo reporter, luciferase signal | human cells with a luciferase reporter of 2A StopGo recoding; control for the full effect not named in the record | Potency, µM (series often up to 57.9 µM), for inactives: at the top dose signal change, negative = less light | 1.2% of 410,000 active | AID 1159524; active = well fitted falling curve with a large enough effect; inconclusive = small, poorly fitted or top-dose-only effect; inactive = no such curve, though single readings can be large or run the other way; tested in HEK293T cells; further: on the % scale 0 is the no-effect control and ±100 the full control effect; nearly all actives have a fitted effect of over 45% in size; luciferase light after 4 h
Cruzain inh noDet = inhibitors of Trypanosoma cruzi cruzain without detergent. P25779. purified cruzain, Z-FR-AMC fluorescence, no detergent. Potency, µM, for the others: max response, negative = inhibition, usual class: inhibitors. 2.3% of 200,000 active;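 further: plate controls were enzyme without inhibitor for no effect and buffer without enzyme for full effect; nearly all actives have a fitted effect of over 40% in size; top concentration of the series not given in the record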
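Detergent-free condition (0.00005% Triton X-100) in acetate buffer pH 5.5 with DTT. 1.5 nM enzyme and compound were pre-mixed 15 min, then 2 uM Z-FR-AMC substrate added; reaction progress from fluorescence change between first and third reads (60 s).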
SARS PLpro yeast = blocks SARS-CoV papain-like protease in a yeast assay; S. cerevisiae expressing SARS-CoV PLpro, growth rescue; control for the full effect not named in the record; AID 485353; 0.19% of 330,000 active; Potency, µM (titrated, usually from 32.9 µM), inactives show at the top dose activity, positive = growth rescue; active means well fitted rising curve with a large enough effect; inconclusive means small, poorly fitted or top-dose-only effect; inactive means no such curve, though single readings can be large or run the other way; further: 0% is about no effect; nearly all actives have a fitted effect of over 55% in size; growth read by luminescence after 48 h
Lassa entry inh = blocks Lassa virus binding to or entry into cells; Lassa virus pseudotype entry inhibition, cell reporter; control for the full effect not named in the record; Potency, µM (doses to about 37.9 µM), for the others: at the highest dose activity change, negative = inhibition, actives largely listed as inhibitors; 1.2% of 300,000 active; active means well fitted inhibition curve with a large enough effect; inconclusive means small, poorly fitted or top-dose-only effect, or effect the other way; inactive means flat fitted curve, though single readings scatter; tested in HEK293 cells; further: on the % scale 0 is the no-effect control and ±100 the full control effect; nearly all actives have a fitted effect of over 50% in size; luciferase read-out
The depositor's hits bear a star; ? = inconclusive; . = not tested or not shown; [ ] = dose if it differs, or a comment. Unless noted, the call rests on the fitted dose curve; in most records, active means well fitted curve in the direction sought with a large enough effect; inconclusive means small, poorly fitted or top-dose-only effect, or another doubt; inactive means no such curve, though single readings can be large; an effect the other way counts as inactive or inconclusive. Potency means the concentration at half of the fitted maximal effect.

entry	structure	RE007 growth inh	NS1 function inh	Marburg entry inh	Cruzain inh Det	StopGo reporter	Cruzain inh noDet	SARS PLpro yeast	Lassa entry inh
1	COc1ccc(CCNC(=O)CCCOc2ccc(C)cc2)cc1OC	6%	-12%	?	-3.2%	?	10%	-11%	2%
2	c1cnc(N2CCN(Cc3ccc4c(c3)OCO4)CC2)cn1	1%	.	0%[46.1 µM]	.	-13%	.	9%	10%[46.1 µM]
3	O=C(O)Cc1ccc(O)cc1	-16%	.	17%[46.1 µM]	.	9%	.	.	5%
4	CCOc1cc(CN2CCCCCC2)ccc1OC	9%	6%	?	.	-20%	.	1%	9%
5	O=C1CCCC(O)=C1N=Nc1ccc2ncsc2c1	.	22%	-2%	-16%	31%[activator]	-17%	-28%	22%
6	CCCC(=O)NC(c1ccco1)c1cc([N+](=O)[O-])c2cccnc2c1O (stereo not given)	-18%	.	?	.	-30%	.	?	?
7	Cc1ccccc1NC(=S)NCCc1c[nH]c2ccccc12	-1%	-11%	-33%	-4.4%	38%[activator]	2%	-2%	?
8	O=C(Cn1c(=O)n(Cc2nc(-c3ccccc3)no2)c(=O)c2cc3c(cc21)OCO3)Nc1cccc(C(F)(F)F)c1	.	.	.	0.7%	0%	5µM*	.	27%[46.1 µM]
9	NC(=O)c1nccc2ccccc12	15%	.	-2%	.	-9%	.	.	20%
10	O=C(Nc1ccc(F)c(F)c1)c1ccccc1-c1ccccc1	-15%	0%	11%	-4.1%	-28%	5%	14µM*	15%
11	CCNC(=S)N1CCC(NC(=O)C2CCCCC2)CC1	-2%	-10%	12%	-1.0%	0%	-5%	-2%	-5%
12	O=C(Oc1ccc(Br)cc1C(=S)N1CCCCC1)c1cc([N+](=O)[O-])cc([N+](=O)[O-])c1	-24%	-86%	-11%	2.6%	11%	?	-14%	0%
13	O=C(O)CSc1nnnn1-c1ccccc1	0%	5%	?	3.6%	-2%	-2%	1%	-2%
14	COc1ccc(Cl)cc1NC(=O)c1cccc(-n2cnnn2)c1	-7%	.	-15%	.	-22%	.	0%	-4%
15	CC(C)(C)OC(=O)N1CCN(c2ccc([N+](=O)[O-])cc2)CC1	-3%	-1%	.	.	-11%	.	0%	.
16	CC/C(O)=C1\C(=O)CCCC1=NCc1nc2ccccc2[nH]1	26%	.	9%	.	-11%	.	0%	10%
17	N/C(=N\OC(=O)c1cc(Cl)ccc1Cl)c1ccccn1	-12%	-56%	4.1µM*	-1.8%	-15%	-6%	-90%	6.5µM*
18	Cc1ccccc1CC(=O)NC1CCCc2ccccc21 (stereo not given)	13%	4%	-25%	.	-3%	.	1%	2%
19	CC(=O)c1ccc(N2CCC(c3cc(-c4ccc(Cl)cc4)n[nH]3)CC2)c([N+](=O)[O-])c1	10%	-17%	-28%	-1.7%	?	?	-24%	-21%
20	CC(C)C(=O)N1CCN(c2ccc(NC(=S)NC(=O)c3cc4ccccc4o3)cc2)CC1	12%	11%	?	.	?	.	10%	?
21	COc1ccc(C(=O)C[n+]2cn(C(F)F)c3ccccc32)c(F)c1	38%	.	3%[46.1 µM]	.	17%	.	-8%	23%
22	COC(=O)c1sccc1NC(=O)c1cc(OC)c(OC)c(OC)c1	9%	-2%	-1%	-3.6%	.	14%	1%	-9%
23	CCOC(=O)c1ccc(S(=O)(=O)N2CCN(C(=O)c3cc(=O)c4ccccc4o3)CC2)cc1	3%	-2%	?	.	-5%	.	-1%	-23%
24	CC(NC(=O)C(NC(=O)C1CCCN1C(=O)OC(C)(C)C)C(C)C)C(N)=O (stereo not given)	-5%	4%	2%	0.1%	.	4%	-1%	-1%
25	C#CCOc1nc(Nc2cccc([N+](=O)[O-])c2)nc(OCC#C)n1	12%	1%	?	.	-23%	.	-1%	?
26	Cc1ccc(O)c(C2=NCCNC(C(F)(F)F)=C2)c1	-11%	8%	11%	-4.1%	4%	-7%	-8%	14%
27	COc1ccc(OCCN2C(=O)NC(C)(c3ccc(C)cc3)C2=O)cc1 (stereo not given)	15%	-6%	-11%	3.0%	-19%	-10%	7%	-3%
28	Cc1ccc(CNc2ccc(N3CCOCC3)cc2)cc1	-16%	25%	?	.	1%	.	2%	-30%[46.1 µM]
29	C=CCn1c(COc2cccc3ccc(C)nc23)nnc1SCC(=O)OC	-2%	-1%	-1%[46.1 µM]	5.6%	1%	-6%	7%	1%
30	COC(=O)c1ccccc1SC(CC(=O)c1ccccc1)c1ccc(F)cc1 (stereo not given)	-7%	1%	-22%	.	0%	.	-1%	-2%

Only SARS PLpro yeast and StopGo reporter (4 entries from above):
no. | Structure | SARS PLpro yeast | StopGo reporter
29 | C=CCn1c(COc2cccc3ccc(C)nc23)nnc1SCC(=O)OC | 7% | 1%
21 | COc1ccc(C(=O)C[n+]2cn(C(F)F)c3ccccc32)c(F)c1 | -8% | 17%
24 | CC(NC(=O)C(NC(=O)C1CCCN1C(=O)OC(C)(C)C)C(C)C)C(N)=O (stereo not given) | -1% | .
22 | COC(=O)c1sccc1NC(=O)c1cc(OC)c(OC)c(OC)c1 | 1% | .

Returning to the listing; the two compounds before the break are reprinted first.
entry	structure	RE007 growth inh	NS1 function inh	Marburg entry inh	Cruzain inh Det	StopGo reporter	Cruzain inh noDet	SARS PLpro yeast	Lassa entry inh
29	C=CCn1c(COc2cccc3ccc(C)nc23)nnc1SCC(=O)OC	-2%	-1%	-1%[46.1 µM]	5.6%	1%	-6%	7%	1%
30	COC(=O)c1ccccc1SC(CC(=O)c1ccccc1)c1ccc(F)cc1 (stereo not given)	-7%	1%	-22%	.	0%	.	-1%	-2%
31	Cc1cccc(N(CC(=O)N(C)Cc2ccccc2)S(=O)(=O)c2ccccc2)c1C	.	.	?	-3.2%	-5%	-1%	.	-13%[46.1 µM]
32	O=C(NCc1ccco1)/C(=C\c1cccs1)NC(=O)c1cccs1	2%	.	-16%[46.1 µM]	.	22%	.	-1%	.
33	COc1ccccc1NS(=O)(=O)c1ccc(S(=O)(=O)N2CCOCC2)cc1	-19%	-2%	23%[46.1 µM]	.	-11%	.	0%	0%
34	Nc1ccccc1SCC(=O)Nc1nccs1	3%	0%	?	.	43%[activator]	.	0%	?
35	CC1=C(C(=O)OCC2CCCCC2)C(c2ccc(Cl)cc2Cl)CC(=O)N1 (stereo not given)	.	.	4%[46.1 µM]	-1.2%	?	-6%	.	0%[46.1 µM]
36	Clc1nc2ccccc2nc1-c1ccccc1	2%	-2%	?	.	17%	.	-1%	1%
37	CC(=O)NS(=O)(=O)c1ccc2c(c1)Cc1cc(S(=O)(=O)NC(C)=O)ccc1-2	-10%	7%	.	.	-7%	.	?	.
38	Cc1ccc(NNC(=O)c2c(F)cccc2Cl)cc1C	1%	-2%	-18%[46.1 µM]	.	31%[activator]	.	-2%	-17%[46.1 µM]
39	Cc1cccc(/C(N)=N/OC(=O)CCC2CCCCC2)c1	9%	-28%	10%	-7.0%	63%[activator]	-16%	-92%	9%
40	Cc1ccc2c(=O)cc(C(=O)Nc3cccc(C(F)(F)F)c3)oc2c1C	.	.	-17%[46.1 µM]	-0.3%	-14%	-7%	.	18%[46.1 µM]
41	Cc1ccc(NC(=O)C(C)OC(=O)c2ccc(Cl)nc2)cc1S(=O)(=O)N1CCOCC1 (stereo not given)	1%	.	10%	.	-4%	.	-2%	13%
42	Cc1ccc2nc(-c3ccc(NC(=O)COC(=O)c4cncc(Br)c4)cc3)sc2c1	-12%	4%	?	-2.4%	-48%	6.3µM*	-8%	?
43	COCC(=O)N(Cc1ccc(OC)cc1)Cc1nc2ccccc2c(=O)[nH]1	3%	1%	13%	3.4%	-11%	-8%	4%	4%
44	CCCN1CNC(=S)N(CCc2ccccc2)C1	0%	9%	?	1.7%	12%	-7%	?	11%
45	O=C(CSc1nc(O)c(Cc2ccccc2F)c(=O)[nH]1)N1CCCCCC1	12%	16%	3%	-4.5%	-1%	11%	1%	12%
46	CC(C)OC(=O)CN1C(=O)C(C)(C)Oc2ccc(C(=O)NC3CC3)cc21	0%	-2%	18%	7.7%	-14%	-13%	1%	-23%
47	CN(CC(=O)Nc1ccccc1)CC(=O)Nc1ccccc1Cl	-13%	4%	.	.	22%	.	0%	.
48	COC(=O)c1cc(S(=O)(=O)NC2CCC(C)CC2)cn1C (stereo not given)	-3%	11%	.	.	46%[activator]	.	-8%	.
49	O=C(COC(=O)c1cnccn1)c1ccc(Cl)cc1	-2%	.	0%[46.1 µM]	.	0%	.	9%	5%
50	Cc1ccc(NC(=O)c2cc(S(=O)(=O)N3CCCCC3)cs2)cc1	10%	2%	-29%	-5.4%	.	1%	4%	21µM*
51	COc1cc(-c2ccno2)ccc1S(=O)(=O)N1CCN(c2ccccc2)CC1	.	.	.	-1.7%	11%	1%	.	-15%[46.1 µM]
52	CCS(=O)(=O)N1CCc2cc(C(=O)NCc3ccccc3Cl)ccc21	.	.	?	-3.9%	17%	0%	.	-16%[46.1 µM]
53	O=C1c2ccc3c4c(ccc(c24)C(=O)N1c1cccc(O)c1)CC3	-16%	.	-28%	.	11%	.	0%	2%
54	COC(=O)Cc1ccc(NC(=O)C(c2ccccc2)c2ccccc2)cc1	-19%	-15%	14%	-6.9%	0%	2%	4%	-11%
55	O=C1/C(=C\c2ccc(O)c(O)c2)SC(=S)N1Cc1ccccc1	?	-61%	?	.	-20%	.	-11%	?
56	CCc1ccc(-c2cc(C)no2)cc1S(=O)(=O)NCc1ccc(OC)c(OC)c1	6%	-13%	?	.	3%	.	-2%	?

Assay outcomes as filed in PubChem.
